UCH37 inh = blocks the human deubiquitinase UCH37 | inhibition, % (test concentration not listed) | purified proteasome/UCH37, Ub-AMC cleavage fluorescence | hit rate 0.33% among 330,000;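 active means mean of two replicates above 20%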;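 further: 0% = compound-free wells with enzyme and 100% = wells lacking proteasome; stock transfer was 100 nL into about 20 µL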
Target sequence (Q9Y5K5 whole entry, looked up): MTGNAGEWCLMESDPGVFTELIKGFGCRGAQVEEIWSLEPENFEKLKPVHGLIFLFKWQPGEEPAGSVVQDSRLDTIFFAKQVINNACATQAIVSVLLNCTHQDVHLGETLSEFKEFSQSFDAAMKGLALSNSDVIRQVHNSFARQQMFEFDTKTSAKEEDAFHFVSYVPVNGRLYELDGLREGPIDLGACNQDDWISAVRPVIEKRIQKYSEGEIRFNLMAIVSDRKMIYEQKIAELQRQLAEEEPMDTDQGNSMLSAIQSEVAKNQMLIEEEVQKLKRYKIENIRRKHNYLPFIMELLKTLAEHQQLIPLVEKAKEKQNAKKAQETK
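Material: Human UCH37 enzyme supplied as purified proteasome complex | Schedule: 30 min compound-proteasome preincubation then 25 min substrate reaction, room temperature | Detection: AMC fluorescence from Ub-AMC cleavage, excitation 355 nm, emission 460 nm | Benchmarks: Wells without proteasome as full block, compound-free enzyme plus substrate as uninhibited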
Ecoli growth = blocks Escherichia coli growth | OD600, 23 h; stronger effect = lower value | OD600 absorbance (test concentration not listed) | hit rate 0.21% among 330,000 | AID 1053175;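 active means OD600 absorbance below the run mean of sample wells minus 3.6 SD, in any replicate, cut at about 0.56 in these data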;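 further: stock transfer was 300 nL into about 60 µL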
The depositor's hits bear a star.

UCH37 inh	Ecoli growth	SMILES
-0.9	0.663	O=C(CNc1ccc(F)cc1)NN=Cc1c(O)ccc2ccccc12
5.9	0.654	O=C(Nc1ccccc1C(=O)NN=Cc1ccco1)c1ccccc1Cl
-75.7	0.662	Cc1cccc(OC(C)c2ccnc3nc(N=CN(C)C)nn23)c1 (stereo not given)
-0.7	0.723	Cn1nc(C(F)(F)F)c(C=NOC(=O)c2ccccc2)c1Cl
2.6	0.68	CC(=O)C(=NNc1ccc([N+](=O)[O-])cc1)N1CCCc2ccccc21
3.9	0.71	CC(CC(=O)Nc1cccc(C(F)(F)F)c1)=NNC(=O)C(=O)NCC(C)C
-2.5	0.657	COc1cc(OC)c(C=NNC(=O)c2ccncc2)c(OC)c1
3.4	0.702	CC(Nc1ccc(Br)cc1)C(=O)NN=Cc1ccccc1OCc1ccccc1 (stereo not given)
4.7	0.717	CCCC=NNC(=O)C1COc2ccccc2O1 (stereo not given)
13.4	0.657	O=C(NN=Cc1ccc(O)c([N+](=O)[O-])c1)C1COc2ccccc2O1 (stereo not given)
-2.5	0.711	O=C(Oc1ccc(C=NNC(=O)c2ccccc2O)cc1)c1ccccc1
6.3	0.695	CC(=NNc1ncc(Br)cn1)c1cccc([N+](=O)[O-])c1
-2.0	0.669	COc1ccc(C=NOC/C(O)=C(\C#N)c2nc3ccccc3[nH]2)cc1
2.6	0.705	Cc1nn(-c2ccc(Cl)cc2)c(Cl)c1C=NNC(=O)c1ccc(NS(=O)(=O)c2cccs2)cc1
8.8	0.642	CCOC(=O)c1sc(/S(C)=N/S(=O)(=O)c2cccc(Cl)c2)c2c1CCC=C2 (stereo not given)
2.5	0.671	COc1cc(C=NNC(=O)c2cccnc2)ccc1OS(=O)(=O)c1ccc(F)cc1
11.3	0.668	Cc1nc2ccccc2c(=O)n1N=Cc1ccc(O)c(O)c1O
5.6	0.624	O=C(NN=Cc1cccnc1)c1cc2ccccc2o1
1.1	0.641	O=C(C(=NNc1ccc(Br)cc1)Sc1nnnn1-c1ccccc1)c1ccccc1
5.5	0.635	O=C(Cc1ccccc1)NN=Cc1ccc[nH]1
4.5	0.693	Cc1ccc(C=NNC(=O)CSc2nc3ccccc3c(=O)n2-c2ccccc2)s1
2.0	0.681	CON=CC(=NNc1ccc(OC)cc1)C(=O)c1ccc(F)cc1
7.8	0.715	CCn1c(O)c(C=NN=Cc2ccccc2)c2ccc(C3=NNC(=O)CC3)cc21
-1.0	0.621	O=C(NN=Cc1cccc(OCc2ccccc2)c1)c1ccc(Br)cc1
6.2	0.688	CCOc1ccccc1C=NNc1ccnc(=O)[nH]1
1.5	0.686	CC(=NN1CCN(c2ccccc2)CC1)c1ccc(O)cc1
0.8	0.732	O=C(CN(Cc1ccco1)S(=O)(=O)c1ccccc1)NN=Cc1cccc(O)c1
1.8	0.699	CC(C)(C=NNC(=O)CSCc1ccccc1Cl)CCC#N
21.2*	0.667	CC(C)(C)c1cc[n+](-c2[nH]c(=O)sc2C=N/N=C(\[O-])c2ccccc2)cc1
10.9	0.694	CN1CCN(c2ccc([N+](=O)[O-])cc2C=NNC(=O)c2ccc(F)cc2)CC1
0.9	0.745	COc1ccccc1-c1cc(C(=O)NN=Cc2cccs2)c2ccccc2n1
7.6	0.696	O=C1N/C(=N\N=Cc2ccco2)SC1Cc1ccccc1[N+](=O)[O-] (stereo not given)
2.0	0.665	O=C(CCC(=O)Nc1ccc(F)cc1)NN=Cc1ccc(O)cc1
-42.1	0.656	COc1cccc(C=Nn2nnnc2N)c1OCc1ccccc1Cl
1.4	0.605	O=C(Nc1ccccc1)ON=Cc1ccc(F)cc1
-0.9	0.748	CCOC(=O)C1=C(C)N=c2sc(=Cc3ccncc3)c(=O)n2C1c1ccc2c(c1)OCO2 (stereo not given)
3.9	0.698	CC(=NNC(=O)C1(C)NC(C)(C)Cc2ccccc21)c1ccccc1 (stereo not given)
5.7	0.686	O=[N+]([O-])c1cc(C=NNc2nc(-c3ccccc3)cs2)ccc1O
-6.6	0.656	COc1ccc(NN=Cc2c(C(=O)O)ccc3ccccc23)cc1
4.2	0.659	CCc1ccc(C=NNC(=O)c2ccc(Br)o2)s1
-5.3	0.674	CC(=NNc1cccc(C(=O)O)c1)c1ccc2c(c1)Nc1ccccc1S2
-1.5	0.748	O=C(CN(CCc1ccccc1)S(=O)(=O)c1ccc(Br)cc1)NN=Cc1ccc2c(c1)OCO2
-0.6	0.674	CC(C)(Oc1ccc(Cl)cc1)C(=O)NN=Cc1cn[nH]c1-c1ccccc1
-108.3	0.734	CCOC(=O)C=c1sc(=Cc2ccc(-c3ccccc3)cc2)c(=O)n1CC(=O)NCc1ccc2c(c1)OCO2
6.2	0.678	COc1ccc(OC)c(C=NNC(=O)CNC(=O)c2ccc(S(=O)(=O)N3CCOCC3)cc2)c1
-0.2	0.688	Cc1cccc(C=NNC(=O)Cn2nnnc2N)n1
0.4	0.722	O=[N+]([O-])c1cccc(/C=C2\CCC(C=NNc3ccc4ccccc4n3)=C2N2CCOCC2)c1
-0.2	0.669	C/C(C=NNC(=O)c1cccc(F)c1)=C\c1ccccc1
8.0	0.66	CCc1ccc(C=NNC(=O)c2cc(-c3ccncc3)nc3ccccc23)s1
0.8	0.672	Clc1ccc(CON=C2CCCc3nonc32)cc1

Further results follow:
UCH37 inh	Ecoli growth	SMILES
-1.5	0.665	O=C(NN=Cc1ccc[nH]1)c1ccc2c(c1)OCO2
-2.4	0.699	Cc1cc(C)nc(N=C(N)N2CCCCCC2)n1
3.8	0.648	O=C(NCc1ccncc1)C(=O)NN=Cc1ccccc1OCc1ccccc1
0.6	0.654	CC(CC(=O)Nc1ccc(Cl)cc1Cl)=NNC(=O)c1ccncc1
3.0	0.643	COc1ccccc1N(CC(=O)NN=Cc1ccc(C(=O)O)cc1)S(=O)(=O)c1ccc(C)cc1
1.4	0.711	Cn1cc(C(=O)c2ccc(Cl)cc2Cl)cc1C(=O)NN=C(N)COc1ccc(Cl)cc1
10.1	0.678	Cn1c(SCC(=O)NN=C/C=C\c2ccco2)nc2ccccc21
0.6	0.659	CCOc1ccccc1OCC(=O)NN=C(C)Cc1ccc(OC)cc1
-75.2	0.69	CC(=O)ON=Cc1c(NCc2ccccc2)nc2c(C)cccn2c1=O
-3.7	0.71	COc1cc(C=NNC(=O)CC#N)ccc1OC/C=C/c1ccccc1
6.9	0.728	O=[N+]([O-])c1ccccc1/C=C/C=Nn1c(-c2ccco2)n[nH]c1=S
0.0	0.649	NC(=O)COc1ccc(C=NNC(=O)CC(=O)NCCc2ccccc2)cc1
-24.8	0.695	Cc1nc2c(c(=O)n1CCC1=CCCCC1)c1nc3ccccc3nc1n2N=Cc1ccccc1
6.2	0.66	COc1ccc(C(C)=NNC(=O)OC(C)(C)C)cc1[N+](=O)[O-]
6.1	0.691	COc1cc(C=NNC(=O)c2cccnc2)ccc1OC(=O)c1ccco1
3.4	0.699	COc1ccc(-c2nn(-c3ccccc3)cc2C=NNc2cccc(C(=O)O)c2)cc1
-39.2	0.69	O=C(NN=Cc1ccccc1O)C1CC(=O)N(c2ccc(Cl)cc2)C1 (stereo not given)
4.8	0.655	Cc1ccc(-c2nnc(SCC(=O)NN=Cc3ccccc3C(=O)O)n2-c2ccccc2)cc1
5.8	0.715	CC(C)C(NC(=O)C12CC3CC(CC(C3)C1)C2)C(=O)NN=CC1=C(N2CCOCC2)/C(=C\c2ccc([N+](=O)[O-])cc2)CC1 (stereo not given)
4.4	0.653	CCCn1c(N=Cc2c[nH]c3ccccc23)nc2ccccc21
5.0	0.624	CCOc1cc(C=NNC(=O)CCc2n[nH]c(=O)[nH]c2=O)ccc1O
3.1	0.717	CCCCOC(=O)c1ccc(NC(=NS(=O)(=O)c2ccccc2)c2ccccc2)cc1
3.7	0.702	CC1=CC(C)C(C=Nn2cnnc2)C(C)C1 (stereo not given)
3.8	0.691	Cn1ccnc1C(=NNC(=O)c1ccccc1)c1cccc([N+](=O)[O-])c1
3.4	0.65	O=C(CNC(=O)C1COc2ccccc2O1)NN=Cc1ccc(Cl)cc1 (stereo not given)
5.5	0.666	COc1ccc(C(C)=NNC(=S)Nc2cc(C)ccc2C)cc1
8.8	0.711	C/C(C=NNC(=O)Cn1nnnc1N)=C/c1ccc(C(C)C)cc1
3.7	0.7	O=C(C[n+]1ccc(C=NO)cc1)NCc1ccccc1
1.7	0.716	O=C(C[n+]1ccccc1)NN=Cc1ccc(F)cc1
-31.5	0.689	O=C(CCC(=O)Nc1ccc(F)cc1)NN=Cc1ccccc1O
6.1	0.693	CC(=O)C(=NNc1ccc(Br)cc1)N1CCCc2ccccc21
0.7	0.674	CCCc1c(C(=O)NN=Cc2ccncc2)nnn1-c1nonc1N
0.4	0.671	O=C(NN=C1CCCc2ccccc21)c1ccccc1Cl
-5.4	0.747	O=C(NN=Cc1ccc(-c2ccc(S(=O)(=O)Nc3ncccn3)cc2)o1)c1cc2ccccc2cc1O
3.8	0.697	CC(C)(C)c1ccc(OCc2ccc(C(=O)NN=Cc3ccc([N+](=O)[O-])cc3)o2)cc1
6.9	0.655	CCOc1cc(C=NNC(=O)c2c(C)nc3ccccn23)ccc1O
5.4	0.708	COC(=O)c1ccc(C=NOCC(=O)NC2CCCC(C)C2C)cc1 (stereo not given)
2.3	0.694	CC1CCCC(=NNC(=O)COc2ccccc2Cl)C1 (stereo not given)
5.1	0.648	COc1ccc(C=NNC(=O)CNC(=O)c2ccncc2)cc1
-0.2	0.755	CCC(=NNc1ccccc1)c1cnnc(SC)n1

Not a retest: 18 of the compounds above.
UCH37 inh	Ecoli growth	SMILES
5.0	0.624	CCOc1cc(C=NNC(=O)CCc2n[nH]c(=O)[nH]c2=O)ccc1O
3.1	0.717	CCCCOC(=O)c1ccc(NC(=NS(=O)(=O)c2ccccc2)c2ccccc2)cc1
3.7	0.702	CC1=CC(C)C(C=Nn2cnnc2)C(C)C1 (stereo not given)
3.8	0.691	Cn1ccnc1C(=NNC(=O)c1ccccc1)c1cccc([N+](=O)[O-])c1
3.4	0.65	O=C(CNC(=O)C1COc2ccccc2O1)NN=Cc1ccc(Cl)cc1 (stereo not given)
5.5	0.666	COc1ccc(C(C)=NNC(=S)Nc2cc(C)ccc2C)cc1
8.8	0.711	C/C(C=NNC(=O)Cn1nnnc1N)=C/c1ccc(C(C)C)cc1
3.7	0.7	O=C(C[n+]1ccc(C=NO)cc1)NCc1ccccc1
1.7	0.716	O=C(C[n+]1ccccc1)NN=Cc1ccc(F)cc1
-31.5	0.689	O=C(CCC(=O)Nc1ccc(F)cc1)NN=Cc1ccccc1O
6.1	0.693	CC(=O)C(=NNc1ccc(Br)cc1)N1CCCc2ccccc21
0.7	0.674	CCCc1c(C(=O)NN=Cc2ccncc2)nnn1-c1nonc1N
0.4	0.671	O=C(NN=C1CCCc2ccccc21)c1ccccc1Cl
-5.4	0.747	O=C(NN=Cc1ccc(-c2ccc(S(=O)(=O)Nc3ncccn3)cc2)o1)c1cc2ccccc2cc1O
3.8	0.697	CC(C)(C)c1ccc(OCc2ccc(C(=O)NN=Cc3ccc([N+](=O)[O-])cc3)o2)cc1
6.9	0.655	CCOc1cc(C=NNC(=O)c2c(C)nc3ccccn23)ccc1O
5.4	0.708	COC(=O)c1ccc(C=NOCC(=O)NC2CCCC(C)C2C)cc1 (stereo not given)
2.3	0.694	CC1CCCC(=NNC(=O)COc2ccccc2Cl)C1 (stereo not given)

Other entries.
UCH37 inh	Ecoli growth	SMILES
-4.9	0.714	COc1cc([N+](=O)[O-])cc(C=NNC(=O)c2cc(-c3ccccc3)nc3ccccc23)c1O
3.9	0.655	CCOc1ccc(C=Nn2c(C)nnc2C)cc1OC
1.1	0.705	COc1cccc(C=NNC(=O)c2ccoc2C)c1O
5.8	0.7	FC(F)(F)c1ccccc1NN=Cc1cccnc1
4.0	0.664	COc1ccc(C=NNC(=O)CC(=O)NCCc2ccccc2)cc1OC
-37.2	0.719	COC(=O)c1sccc1-c1ccc(C=NOC(=O)c2cccs2)o1
-6.5	0.663	CCC(CC)C(=O)Nc1cccc(C(C)=NNC(=O)c2ccc(C)s2)c1
3.8	0.682	Cc1onc(-c2ccccc2Cl)c1C(=O)NN=C(N)COc1ccc(Cl)cc1
-0.1	0.683	COc1cc(C=NNC(=O)c2ccc3nc[nH]c3c2)cc(OC)c1OC
2.7	0.647	Cc1ccc(OCC(=O)NN=Cc2ccco2)c(C)c1
2.9	0.674	COc1ccccc1C=NNC(=O)c1cccc2ccccc12
1.7	0.647	CCOC(=O)C(=NNc1ccc(Cl)cc1)S(=O)(=O)c1ccc(Cl)cc1
0.5	0.635	O=C(NN=C1CC2CC=CC12)c1ccc(COc2ccccc2)cc1 (stereo not given)
-1.8	0.675	COc1ccc(C=Nn2cncn2)cc1CSc1ccccn1
6.2	0.757	Cc1cc(O)c(C=NNc2ccccc2)c(=O)o1
2.3	0.711	CC(C=NNC(=O)COc1ccccc1C)=NNC(=O)COc1ccccc1C
4.2	0.677	O=S(=O)(NN=Cc1ccc2c(c1)OCO2)c1ccccc1
5.5	0.698	CC(=NN1CCN(C2c3ccccc3-c3ccccc32)CC1)c1cccnc1
-264.0	0.703	Cc1cccc(C=NNC(=O)c2cc(-c3cccnc3)nc3c2c(C)nn3-c2ccccc2)c1
1.5	0.698	Clc1ccc(-c2csc(NN=Cc3ccco3)n2)cc1
2.3	0.783	Cc1ccc(CN(CC(=O)NN=Cc2ccccc2[N+](=O)[O-])S(=O)(=O)c2ccc(C)cc2)cc1
-0.5	0.66	CC(=NOC(=O)c1ccccc1F)c1nccs1
1.5	0.697	CCOc1cc(C=NO)cc(Cl)c1OCC
3.1	0.701	O=C(NN=Cc1cc(Br)c(O)c(Br)c1O)c1ccc2c(c1)OCCO2
3.2	0.63	NC(=NOC(=O)c1cccc([N+](=O)[O-])c1)c1cccnc1
-1.1	0.718	CC(=O)NN=Cc1cc(C(C)(C)C)cc(C=NNC(C)=O)c1O

A portion of the library; rates above refer to the full screens.
